Source: PubChem BioAssay
Calb biofilm kill = clotrimazole potentiators killing C. albicans biofilm, primary screen, 4-compound mixtures. C. albicans biofilm persisters + clotrimazole, fluorescence viability; primary screen in compound mixtures of four per well. inhibition, % at 7.6 µM. 0.02% of 120,000 active. AID 1242, 2008;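 active means inhibition above 30.3% in the primary screen of four-compound pools, then above 30% when the compound was retested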;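 further: compounds exposed to preformed 24 h biofilms for 48 h; the number belongs to the whole pool; some results filed as inactive read as strong as hits; inactives centre near 12; 0% = biofilm with clotrimazole alone and 100% = kill control; retested singly at about 60 µM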
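Assay system: C. albicans biofilms / Medium: RPMI/MOPS medium, pH 7.0 / Schedule: biofilm formation 24 h, compound exposure 48 h, 37 °C / Measured by: Alamar Blue fluorescence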
* = called active by the depositor.

canonical_smiles | Calb biofilm kill
CSc1nnc(C)c(=O)n1COC(=O)COc1ccc(Cl)cc1Cl | 5
N#CCCn1c(SCC(=O)Nc2ccc(N3CCOCC3)cc2)nc2ccccc21 | 8
O=C(/C=C/c1ccco1)Nc1cccnc1Cl | 19
CC(=O)c1cccc(NC(=O)c2cc(Cl)sc2Cl)c1 | 1
O=C1N=c2ccccc2=C1c1c(O)n(-c2cccc(F)c2)[nH]c1=O | 12
O=C(O)Cc1ccc(O)c(F)c1 | 14
Cc1ccc(-c2nn(-c3ccccc3)cc2/C=N/NC(=O)c2ccncc2)o1 | 8
C[C@@H]1C=C(C(=O)N2CCOCC2)O[C@H](OCc2ccc(CO)cc2)C1 | 21
O=[N+]([O-])c1cccc(S(=O)(=O)[N-]c2nc3ccccc3nc2-n2cc[n+](Cc3ccccc3)c2)c1 | 24
O=C(CN1CCc2ccccc21)NC(c1ccccc1)c1ccccc1 | 6
O=C(OCc1cn(Cc2ccccc2)nn1)c1ccccc1 | 11
Cc1ccc(NC(=S)NCC2CCCO2)cc1C (centres undefined) | 15
CC(=O)c1sc(NC(=O)CCCOc2ccccc2C)nc1C | 2
CCn1ccnc1C(O)c1ccccc1OC (centres undefined) | 11
CC(=O)OC1OCCOC1NC(=S)NCc1ccco1 (centres undefined) | 25
CCOC(=O)N1CCN(C(=O)C(=O)NNC(=O)COc2ccc(Cl)c(C)c2)CC1 | -1
CC(C)NS(=O)(=O)c1cc(C(=O)O)ccc1Cl | 9
CCCC(=O)Nc1sc2c(c1C(=O)Nc1ccccn1)CCCC2 | 17
Cc1ccccc1-n1nc(-c2cccnc2)cc1C(=O)NN | 10
O=[N+]([O-])c1ccc(OCCN2CCNCC2)cc1 | 5
O=C(C1CC2C=CC1C2)N1CCN(c2ccccc2)CC1 (centres undefined) | -7
Cc1ccc(-c2nnc(Nc3ccc(C(=O)N(C)C)cc3)c3ccccc23)cc1S(=O)(=O)NCC1CCCO1 (centres undefined) | 13
CC(C)C(NC(=O)c1ccccc1)C(=O)NCC(c1ccccc1)N(C)C (centres undefined) | 10
NS(=O)(=O)c1ccccc1 | 22
OCCC1CN(Cc2cccn2-c2cccnc2)CCN1C1CCCCC1 (centres undefined) | 9
CCCCCCCCCC(=O)N/N=C(\C)c1cccnc1 | -4
CN(C)C(=S)Nc1ccc(S(=O)(=O)N2CCCCC2)cc1 | 13
CCCC[C@@H]1CNC(=S)N1CC1CCCCC1 | 15
CCCCC1=CC2=CC(=O)C(C)(OC(=O)CC)C(=O)C2=CN1CCCOC(C)C (centres undefined) | 9
Cc1ccccc1C(=O)NC1CCN(CC(=O)Nc2ccc3c(c2)OCCO3)CC1 | -7
c1sc2[n+](c1C13CC4CC(CC(C4)C1)C3)CCS2 | 8
CC(NC(=O)Cc1ccc(F)cc1)C(c1cccs1)N1CCN(C)CC1 (centres undefined) | 18
Cc1cccc(N=C2NN=C(c3c(C)[nH]c4ccccc34)CS2)c1 | 6
CCOc1nc(NC(=O)NC(=O)c2ccccc2)nc(-c2ccccc2)n1 | 21
COc1cc(C2C(C#N)=C(N)OC3=C2C(=O)CC(C)(C)C3)cc([N+](=O)[O-])c1O (centres undefined) | 14
Cc1ccc(SCC(=O)Nc2ccc(N3CCN(C)CC3)c(F)c2)c(C)c1 | -1
O=S(=O)(NCCc1nnc2ccc(SCc3cccnc3)nn12)c1ccccc1 | 14
COC(=O)c1c(NC(=O)CN(c2ccccc2)S(C)(=O)=O)sc2c1CCCC2 | 16
Cc1c(Cl)cccc1NC(=O)CCCN1C(=O)c2cccnc2C1=O | -4
N#C/C(=N\Nc1cccc(F)c1)C(=O)C1CC1 | 11
CCn1ccnc1CN(C)Cc1nc(CCC(C)C)no1 | 20
COc1ccc(-c2ccoc2)cc1[C@H]1[C@H]2C=CC[C@@H](C)[C@@H]2C(=O)N1Cc1ccccc1 | 18
N/C(=C/C(=O)c1ccccc1O)C(F)(F)F | 5
Cc1ccc(NC(=O)Cn2nc(C)c([N+](=O)[O-])c2C)cc1C | 2
COc1ccc(N(C(=O)c2ccco2)C(C(=O)NC2CCCC2)c2cccs2)cc1 (centres undefined) | 14
CC1(C)CC(=O)C2=C(C1)Nc1cc(Cl)ccc1S2 | 10
O=C(N/N=C/c1ccc(C(=O)O)cc1)C1=NNC(c2ccccc2)(c2ccccc2)C1 | 5
N#CC(=C=[N-])/C=C(\C(=O)c1ccccc1)[n+]1ccccc1 | 28
Oc1c(C(c2ccccn2)N2CCCCC2)cc(Cl)c2cccnc12 (centres undefined) | 15
COC(=O)c1ccc(COc2ccccc2/C=C(\C#N)C(=O)Nc2ccccc2C)cc1 | -12

Later entries:
canonical_smiles | Calb biofilm kill
Cc1ccc(-c2cnc3cc(C)nn3c2)cc1 | 4
Cc1cc(C(=O)CN2CCCC2)c(C)n1-c1ccc(Cl)cc1 | 10
CN1/C(=C\C(=O)CSc2nnc(NCc3ccccc3)s2)C(C)(C)c2ccccc21 | 11
CCN(CC)CCCN=Cc1c(-c2ccccc2)[nH]n(-c2nc3ccccc3s2)c1=O | 3
Cc1nn(-c2ccc(Cl)cc2)c(=O)c2ccccc12 | 22
O=C(CCC1CCCN(Cc2ccc3c(c2)OCCO3)C1)NCc1ccc(F)c(F)c1 (centres undefined) | 7
CCN(CC(=O)Nc1ccc(NC(C)=O)cc1)c1ccc(C(F)(F)F)cn1 | 7
Cn1c(=O)[nH]c2nnc(-c3ccc(Cl)c(Cl)c3)nc2c1=O | 15
COc1cccc(-c2cc3nc4c(c(N5CCC6(CC5)OCCO6)n3n2)CCC4)c1 | 20
C=CCNC(=S)N1CCc2[nH]c3ccccc3c2C1 | 24
Cc1ccnc(NC(=O)/C=C/c2ccccc2[N+](=O)[O-])c1 | -3
CCC(=O)NC(=S)Nc1cccc(NC(=O)c2ccccc2)c1 | 3
Cc1nc(SCC(=O)Nc2ccc(Cl)cc2[N+](=O)[O-])nc(C)c1C | 9
CC1CCCC(C)N1/N=C/c1ccc(C#N)cc1 (centres undefined) | -2
COCCn1c(SCC(=O)NCc2ccccc2)nnc1-c1ccco1 | 17
CCN1CCN(Cc2ccc(NC(=O)c3cc(NC(=O)C4=NN(c5ccccc5)C(=O)C4)cc(OC)c3)cc2C(F)(F)F)CC1 | 11
COc1ccc2c(c1)CCN(C(=O)CCl)C2C1C(=O)CCCC1=O (centres undefined) | 16
CCOc1ncccc1C(=O)OCC(=O)NC1CC1 | -17
CN(C)C/C=C/C(O)(c1ccccc1)c1ccccc1 | 27
Cc1c(NC(=O)/C(C#N)=C/c2ccccc2)c(=O)n(-c2ccccc2)n1C | 1
Nc1nc2ccccc2n1/N=C/c1ccc2c(c1)OCO2 | 27
Cc1ccnc(NS(=O)(=O)c2ccc(NC(=O)c3cc(-c4ccc(Br)cc4)nc4ccccc34)cc2)n1 | 1
CCOc1ccc(NC(=S)NC(C)C(c2ccccc2)N2CCN(C)CC2)cc1 (centres undefined) | 6
N#CC1=C(SCC(=O)Nc2ccccc2)NC(=O)CC1c1ccco1 (centres undefined) | 8
CCOc1ccc(/C=C2\SC(=S)N(NS(=O)(=O)c3ccccc3)C2=O)cc1OC | -2
CCOC(=O)C1(CCOc2ccccc2)CCN(Cc2cccc3nonc23)CC1 | 6
Cc1ccc(C)c(N2CN(Cc3ccco3)CNC2=S)c1 | 8
COc1ccccc1OCCCC(=O)NCc1ccco1 | -5
Cc1ccc(-c2nnc(OCC3CCCO3)c3ccccc23)cc1 (centres undefined) | 3
Cc1c(-c2nc(-c3ccc(C(C)(C)C)cc3)no2)n(C)oc1=O | 15
CC(C)Cc1nc(SCc2cccnc2)c2c(=O)n(C)c(=O)n(C)c2n1 | 17
CCN(CC)S(=O)(=O)c1ccc(N2CCOCC2)c(NC(=O)CC(C)(C)C)c1 | -6
C/C(=N\Nc1ccccc1[N+](=O)[O-])c1ccc(N2CCOCC2)cc1 | -4
CCOCC(=O)Nc1ccccc1C(=O)N1CCOCC1 | 7
CCCCC(=O)Nc1ccc2c3c(cccc13)CC2 | -10
CCOc1cc(CNCc2ccccn2)cc(Cl)c1OCC | 11
O=C(O)c1ccccc1/C=N/NC(=S)NC1CCCCC1 | 16
CCOC(=O)c1c(C)[nH]c(C(=O)CSc2nc(C)cc(C)n2)c1C | 5
COc1ccc(Nc2ccc(S(=O)(=O)N3CCCCCC3)cc2[N+](=O)[O-])cc1 | 21
COc1cc(C(=O)NNc2nc3cc4c(cc3s2)OCO4)cc(OC)c1OC | 9
Cc1c(NC(=O)c2ccc(Br)s2)c(=O)n(-c2ccccc2)n1C | 1
COc1cccc(NC(=O)CN(C)C(=O)/C=C/c2cc(OC)ccc2OC)c1 | 15
COc1ccc(N2C(=O)CC(Sc3nc(C)cc(C)c3C#N)C2=O)cc1 (centres undefined) | 8
CC1CCN(C(=O)c2cc(N3C(=O)C4C5CCC(C5)C4C3=O)ccc2Cl)CC1 (centres undefined) | 12
CC(C)NC(=O)COC(=O)c1ccc(Cl)c(S(N)(=O)=O)c1 | 14
CCn1cc(Cl)c(C(=O)Nc2ccc(OC)c(OC)c2)n1 | 19
Cc1ccc(Cn2c(C(=O)O)cc3sccc32)cc1 | 10
Cc1cc(C)cc(NC(=O)c2cc(=O)c3ccccc3o2)c1 | 11
CCN(CC)S(=O)(=O)c1cc(-c2nnc(-c3ccc(Br)cc3)o2)ccc1Br | 6
O=C(Nc1ccc(F)c(Cl)c1)Nc1ccc(Cl)cn1 | 7

Next section.
canonical_smiles | Calb biofilm kill
CC(=O)Nc1sc(N/N=C/c2ccccc2F)nc1-c1ccc(C)cc1 | 19
CCN(CC)S(=O)(=O)c1ccc(-c2nnc(SCC(N)=O)n2CC)cc1 | 1
O=C(CSc1ncccn1)N1CCN(S(=O)(=O)c2ccccc2)CC1 | 15
O=C(NC(=S)N1CCCCCC1)c1ccc(Cl)cc1Cl | 18
CC(C)(C)OC(=O)NCCCC[C@H](NC(=O)c1nc[nH]c1C(=O)NC(c1ccccc1)c1ccccc1)C(=O)OC(C)(C)C | 19

These rows are one share of the data; the hit share may differ from the screen's.
